VDR inh: Inhibitors of the vitamin D receptor (VDR): qHTS; VDR-SRC2-3 peptide fluorescence polarization, 2 h; AID 504847, 2011; 0.93% of 400,000 active; Potency, µM, for the others: max response, negative = inhibition, actives largely listed as inhibitors; active = well fitted inhibition curve with a large enough effect; inconclusive = small, poorly fitted or top-dose-only effect, or another doubt; inactive = no such curve, though single readings can be large or run the other way; note: series mostly up to about 120 µM
Target sequence (P11473 whole entry, looked up): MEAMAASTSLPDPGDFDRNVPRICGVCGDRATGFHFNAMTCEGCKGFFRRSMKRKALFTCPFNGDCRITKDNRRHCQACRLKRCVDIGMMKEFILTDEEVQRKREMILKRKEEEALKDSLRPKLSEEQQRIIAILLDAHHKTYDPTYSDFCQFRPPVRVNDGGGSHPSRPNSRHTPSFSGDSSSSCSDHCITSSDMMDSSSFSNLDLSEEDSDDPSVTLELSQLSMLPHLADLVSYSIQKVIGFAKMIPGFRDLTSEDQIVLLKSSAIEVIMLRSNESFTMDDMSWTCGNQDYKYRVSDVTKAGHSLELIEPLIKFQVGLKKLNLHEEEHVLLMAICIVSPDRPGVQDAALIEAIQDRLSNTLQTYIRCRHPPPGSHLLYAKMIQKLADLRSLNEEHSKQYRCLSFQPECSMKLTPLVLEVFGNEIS
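Fluorescence polarization assay of small-molecule disruption of VDR binding to coregulator peptide SRC2-3. Compounds and controls pin-transferred, then read after 2 h incubation at ambient room temperature.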
Numbers without * were called inactive; ? = inconclusive. % is set by controls: 0 for no effect and ±100 for the full control effect; potency is the fitted concentration of half-maximal effect.

SMILES | VDR inh
O=C(CSc1ccc(Br)cc1)NCC1(N2CCCCC2)CCCCC1 | 0%
Cc1nn(CCC(N)=O)c2nc(-c3cccs3)cc(C(F)(F)F)c12 | -20%
Cn1cc(/C=C/C(=O)N2CCCC(C(=O)c3cccc4ccccc34)C2)cn1 (stereo not drawn) | 9%
Cc1ccc(O)c(C(=O)CC(=O)c2ccc(Cl)cc2)c1 | 12%
CCOc1ccccc1NC(=S)N1CCN(c2nc(-c3cccc(OC)c3)cs2)CC1 | -30%
CCOc1ccccc1C1CC(=O)Nc2c1c(=O)n(C)c1ncnn21 (stereo not drawn) | -2%
COc1ccc(C(=O)Nc2ccccc2N2CCOCC2)cc1S(=O)(=O)N1CCCC1 | -7%
O=C(Nc1cccc(NC(=O)c2sc3ccccc3c2Cl)c1)c1ccco1 | -8%
CCOC(=O)C1CCN(Cc2nnnn2CCc2ccccc2)CC1 | -6%
CCC1C(=O)NCCN1C(=O)c1cc(COc2cc(C)ccc2C)on1 (stereo not drawn) | 12%
CC1(C)CSC(=NCCc2ccccc2)N1 | 11%
COc1cccc(C(O)c2nccn2Cc2ccccc2)c1OC (stereo not drawn) | 3%
CCc1ccc(S(=O)(=O)c2cn(C)c3cc(N4CCCCC4C)c(F)cc3c2=O)cc1 (stereo not drawn) | 16%
Clc1ccc(C(c2nnnn2C2CCCC2)N2CCN(c3nc4ccccc4s3)CC2)cc1 (stereo not drawn) | 9%
O=C(CCNS(=O)(=O)c1cccc2nsnc12)NC1CCCc2ccccc21 (stereo not drawn) | -4%
NS(=O)(=O)c1cccc(NC(=O)CSc2ncnc3ccccc23)c1 | 1%
O=C(NNC(=O)c1cc(Br)c(Br)s1)c1csc(N2CCOCC2)n1 | -8%
CCCCCCCCCCCCCCCCOCCOCCOCCOCCOCCOCCOCCOCCOCCOCCOCCOCCOCCOCCOCCOCCOCCOCCOCCOCCO | 2%
COc1ccccc1NC(=O)c1ccc(NC(=O)CN2CCCC2)cc1 | 6%
O=C(/C=C/Nc1ccc(F)cc1F)c1ccc(Br)cc1 | -3%

Random excerpt: 7 records from the list, in no set order.
SMILES | VDR inh
O=C(CSc1ccc(Br)cc1)NCC1(N2CCCCC2)CCCCC1 | 0%
CCOC(=O)C1CCN(Cc2nnnn2CCc2ccccc2)CC1 | -6%
COc1ccccc1NC(=O)c1ccc(NC(=O)CN2CCCC2)cc1 | 6%
O=C(/C=C/Nc1ccc(F)cc1F)c1ccc(Br)cc1 | -3%
CCOc1ccccc1NC(=S)N1CCN(c2nc(-c3cccc(OC)c3)cs2)CC1 | -30%
Cc1ccc(O)c(C(=O)CC(=O)c2ccc(Cl)cc2)c1 | 12%
CC1(C)CSC(=NCCc2ccccc2)N1 | 11%

(cont.)
SMILES | VDR inh
COc1ccc(-c2ccc(-c3noc(-c4ccccc4F)n3)c(OC)n2)cc1 | -2%
O=C(CSc1nnc(Nc2ccccc2)s1)NCC1CCCO1 (stereo not drawn) | 4%
O=C(CC12CC3CC(CC(C3)C1)C2)N/N=C\c1ccc[nH]1 | 3%
O=C(CSc1nnc(C2CC2)n1-c1ccccc1)NC1CCS(=O)(=O)C1 (stereo not drawn) | -7%
Cc1nn(C)c(C(=O)NNC(=S)NCc2ccco2)c1Br | -13%
CC[n+]1c(/C=C/c2ccc(N(C)C)cc2)ccc2ccccc21 | 13%
CC(C)C(=O)Nc1nnc(S(=O)(=O)N(C)Cc2ccc(F)cc2)s1 | 12%
CN(C)c1ccc(C(CNS(=O)(=O)c2cccc([N+](=O)[O-])c2)N2CCOCC2)cc1 (stereo not drawn) | -9%
CCN(CC)S(=O)(=O)c1ccc2c(c1)N(CC(=O)N(CCc1ccncc1)C(C)C)C(=O)CO2 | 1%
COc1ccc(CN2CCN(CCc3ccccc3)C(CCO)C2)c(Cl)c1OC (stereo not drawn) | -5%
CC1(C)CC(=O)C2=C(C1)Nc1ccccc1N1C(=O)c3ccccc3C21 (stereo not drawn) | -15%
O=C(O)c1cccc(NC(=S)NCc2ccccc2)c1 | -4%
CCCNC(=O)CN(c1cccc(F)c1)S(C)(=O)=O | 0%
CC(=O)NS(=O)(=O)c1ccc(NC(=S)NC(=O)Cc2ccccc2)cc1 | 2%
COc1ccccc1C(=O)N1CC(=O)Nc2ccc(F)cc2C1c1ccccc1 (stereo not drawn) | -9%
CCCOc1ccc(N2C(=O)C3C4C=CC(CC4)C3C2=O)cc1 (stereo not drawn) | -9%
O=C(c1ccc(CS(=O)(=O)c2ccc(Br)cc2)o1)N1CCCC1 | -5%
Cc1ccc(NC(=O)Nc2nnc(Cc3ccc([N+](=O)[O-])cc3)s2)cc1 | 14%
COC(=O)c1cc(-c2ccc(Br)cc2)n[nH]1 | 14%
Cc1ccc2c(c1)C(O)(CC(=O)c1ccc3c(c1)OCO3)C(=O)N2 (stereo not drawn) | -4%
CSCCC(NC(=O)c1ccc(Cl)c([N+](=O)[O-])c1)C(=O)N1CCN(C/C=C/c2ccccc2)CC1 (stereo not drawn) | -1%
Cc1ccc(C(=O)NC(=S)NNS(=O)(=O)c2ccc(C)cc2)cc1 | -17%
CCOC(=O)C1=C(COC(=O)CCOc2ccc(OCC)cc2)NC(=O)NC1C (stereo not drawn) | 3%
NC(=O)C1CCN(C(=O)CNC(=O)c2ccccc2)CC1 | -7%
COC(=O)C(=C/C=C/c1cccnc1)C(=O)OC | -14%
O=C(Cc1nc(-c2cnccn2)no1)NNC(=O)Nc1ccccc1 | -15%
O=C(Cc1ccccc1)Nc1ccc2c(c1)CCC2 | 4%
CCC(C)[C@H](NC(=O)N1CC(=O)Nc2ccccc21)C(=O)N[C@@H](C(=O)O)c1ccccc1 (stereo partly drawn) | 3%
O=C(Cn1cc(C(F)(F)F)ccc1=O)N/N=C/c1ccc(O)cc1 | -8%
COC(=O)C(CCSC)NC(=O)CNS(=O)(=O)c1ccc(F)cc1 (stereo not drawn) | -1%
Cn1c(-c2ccco2)nc2cc3ccccc3cc21 | -17%
Cc1ccc(NC(=O)Cn2nc(C)cc2C)cc1 | -12%
Cc1cccc(C)c1NC(=O)CN1C(=O)N(C)Cc2ccccc21 | -17%
CC1Cc2ccccc2N1C(=O)CNc1cccc(S(=O)(=O)N2CCCC2)c1 (stereo not drawn) | 25µM*
Cc1cccc(NC(=S)NC(=O)/C=C/c2ccccc2)n1 | 4%
Cc1cc(CNC(=O)COc2ccc(F)cc2)c2ccccc2n1 | -5%
CC(C)(C)n1nnnc1C(c1ccc(F)cc1)N1CCC(C(N)=O)CC1 (stereo not drawn) | -13%
CC(C)(C)c1cc(C(=O)N2CCN(c3ncccn3)CC2)ccn1 | -14%
Cc1ccc(CCNC(=O)c2ccc(CNS(=O)(=O)c3ccccc3)cc2)cc1 | -22%
CC(C)Cc1nnc(NC(=O)CSc2nc(N)cc(=O)[nH]2)s1 | -2%
CC(=O)c1ccc(NC(=O)c2sc3nc(N4CCOCC4)c4c(c3c2N)CCCC4)cc1 | 11%
O=C(CSc1nnc(-c2ccco2)n1Cc1ccco1)N1CCOCC1 | -3%
COc1cccc(CNC(=O)c2cccnc2Sc2ccc(C)cc2C)c1 | 14%
COc1ccc(-c2cc(=O)oc3c4c(ccc23)OCN(Cc2ccccc2)C4)cc1 | 13%
CCOC(=O)c1cccc(NS(=O)(=O)c2ccc3[nH]c4c(c3c2)CCCC4)c1 | -1%
CCCS(=O)(=O)N1CCC(C(=O)NC2CCCCC2C)CC1 (stereo not drawn) | -1%
COc1cc(C(=O)CCN2CCC(c3ccccc3)C2)cc(OC)c1OC (stereo not drawn) | ?
CC1(C)Cc2nc(NCCN3CCOCC3)c(C#N)cc2CO1 | 20%
C=C(C)CNC(=S)N/N=C1\CCCCc2ccccc21 | -12%
O=C(c1ccco1)N1CCC[C@@]2(CCN(C(c3ccccc3)c3ccccc3)C2)C1 | ?
(more compounds)
SMILES | VDR inh
Nc1nc(=S)[nH]c2c1C1(CCCCC1)Cc1ccccc1-2 | -9%
CCN(CC)C(=O)c1sc(NC(=O)c2c(OC)cccc2OC)c(C#N)c1C | 4%
CCc1nnc(NC(=O)CSc2nnc(-c3ccco3)n2CC)s1 | -10%
O=C(C(Cl)Cl)N1CCN(Cc2ccccc2)CC1 | -7%
CN1CCN(CCC(=O)Nc2cccc(F)c2)CC1 | -1%
CCCC(C)C(=O)Nc1ccc(F)c(Cl)c1 (stereo not drawn) | -14%
CSc1ccc(C2c3c(oc4ccccc4c3=O)C(=O)N2CCCN2CCOCC2)cc1 (stereo not drawn) | -1%
CCOC(=O)C1=C(C)NC(=O)NC1c1ccsc1 (stereo not drawn) | -8%
CCCCCC(=O)NC(=S)NNC(=O)c1ccc([N+](=O)[O-])cc1 | -19%
CCCCC(=O)NC(c1ccc(OC)c(OC)c1)c1ccc2cccnc2c1O (stereo not drawn) | 6%
CCC(CC)C(=O)Nc1ccc2nc(SCC(=O)N3CCc4ccccc43)sc2c1 | 4%
COc1cccc(C(=O)NNC(=O)CCN2CCN(c3ccccc3)CC2)c1 | 7%
CCNc1nc(Oc2c(Cl)cccc2Cl)cc(C(F)(F)F)n1 | -8%
CCc1noc(C)c1C(=O)N1CCC(CCC(=O)Nc2cccc(C)c2)CC1 | 5%
CCc1ccnc(NS(=O)(=O)c2ccc3c(c2)OCCO3)c1 | -10%
O=C(Nc1ccc2[nH]c(=S)sc2c1)Nc1ccccc1F | ?
CN(C)S(=O)(=O)c1cc(NC(=O)CSc2cccc[n+]2[O-])ccc1Cl | 9%
Cc1cc(-c2n[nH]c(=S)n2CC(C)C)cs1 | -13%
COCCNC(=O)CCCn1c(SCC(=O)Nc2cccc(C)c2)nc2c(sc3ccccc32)c1=O | 4%
COc1ccc(NC(=O)CCCn2c(=O)c3sccc3n(Cc3ccc(C)cc3)c2=O)cc1 | 8%
O=[N+]([O-])c1ccc(OCc2n[nH]c(=S)n2-c2ccccc2)cc1 | -5%
COc1ccc(O)c(/C=N/c2sc(C)c(C)c2C#N)c1 | -14%
O=C(Nc1cc(S(=O)(=O)N2CCOCC2)ccc1N1CCOCC1)c1cccs1 | -11%
CCOC(=O)C1CCCN(C(=O)c2ccc3oc(Cc4ccccc4)nc3c2)C1 (stereo not drawn) | -3%
CC(=O)Nc1nc(C)cs1 | 12%
COc1ccc(Nc2nnc(SCC(=O)NC3CCS(=O)(=O)C3)s2)cc1 (stereo not drawn) | -3%
COc1ccccc1NC(=O)CSc1nnc(CCNC(=O)c2ccc(C)cc2)n1C | -20%
CCn1c(SCC(=O)N2CCN(c3ccccc3F)CC2)nnc1-c1ccoc1C | -12%
Cc1cccc(-c2cc3nc(C)cc(NCCCn4ccnc4)n3n2)c1 | 3%
CCOC(=O)c1cnc(-c2ccccc2)nc1Oc1ccc(OC)cc1 | 14%

Brought forward from above: 3 compounds, then new ones.
SMILES | VDR inh
CCn1c(SCC(=O)N2CCN(c3ccccc3F)CC2)nnc1-c1ccoc1C | -12%
Cc1cccc(-c2cc3nc(C)cc(NCCCn4ccnc4)n3n2)c1 | 3%
CCOC(=O)c1cnc(-c2ccccc2)nc1Oc1ccc(OC)cc1 | 14%
CCCCSCCCNC(=O)c1cn(CC)c2ccc(S(=O)(=O)N3CCCCCC3)cc2c1=O | 3%
Cc1ccc2nc(N3C(=O)C(O)=C(C(=O)c4ccc(C)o4)C3c3cccc(O)c3)sc2c1 (stereo not drawn) | ?
CCCN1CCN(C(=O)c2c(Cl)cnn2C)CC1 | 7%
Cc1ccccc1C(=O)N1CCC(C(=O)NN2C(=O)NC3(CCCCC3)C2=O)CC1 | -4%
Cc1cc(C)cc(NC(=O)c2ccc(N3C(=O)C4CCCCC4C3=O)cc2)c1 (stereo not drawn) | -8%
CCc1c(C)sc(NC(=O)c2cc3nc(-c4ccc(OC)cc4)cc(C(F)(F)F)n3n2)c1C(=O)OC | -14%
COC(=O)c1ccc(NC(=S)NNC(=O)c2ccccc2)cc1 | 3%
O=[N+]([O-])c1ccccc1/C=C/C=N/Nc1nc(N2CCCCC2)nc(N2CCCCC2)n1 | ?
Cc1oc2cc(OC(=O)c3ccco3)ccc2c(=O)c1-c1nc2ccccc2n1C | -17%
O=C(CC(c1ccco1)C1CCCCC1=O)c1ccccc1 (stereo not drawn) | 5%

Some of these compounds in order of length of the SMILES, highest first.
SMILES | VDR inh
CCc1c(C)sc(NC(=O)c2cc3nc(-c4ccc(OC)cc4)cc(C(F)(F)F)n3n2)c1C(=O)OC | -14%
O=[N+]([O-])c1ccccc1/C=C/C=N/Nc1nc(N2CCCCC2)nc(N2CCCCC2)n1 | ?
CCCCSCCCNC(=O)c1cn(CC)c2ccc(S(=O)(=O)N3CCCCCC3)cc2c1=O | 3%
Cc1ccccc1C(=O)N1CCC(C(=O)NN2C(=O)NC3(CCCCC3)C2=O)CC1 | -4%
Cc1cc(C)cc(NC(=O)c2ccc(N3C(=O)C4CCCCC4C3=O)cc2)c1 (stereo not drawn) | -8%
COC(=O)c1ccc(NC(=S)NNC(=O)c2ccccc2)cc1 | 3%

New compounds follow
SMILES | VDR inh
CCOC(=O)c1cc(-c2ccccc2)sc1NC(=S)Nc1cccc(C)n1 | -3%
Nc1ccc(Cl)c[n+]1Cc1cccc2cccnc12 | -7%
Cc1ccc(C(=O)NC2CCC(C)CC2)o1 (stereo not drawn) | -5%
Cc1ccc(S(=O)(=O)c2cn(CC(=O)Nc3ccc4c(c3)OCO4)c3ccc(C)cc3c2=O)cc1 | -8%
CCOC(=O)c1cnc2c(CC)cccc2c1NCCCN1CCOCC1 | 1%
Cc1ccc(N2C(=O)CSC2c2ccc3c(c2)OCO3)cc1 (stereo not drawn) | -5%
O=C(CNC(=O)c1ccco1)OCC(=O)c1cccc2ccccc12 | 19%
C=CCOC(=O)C1=C[C@@H](c2coc3ccccc3c2=O)C[C@@H](OCCCCO)O1 | -7%
CCCCOC(=O)c1ccc(NC(=O)COC(=O)c2ccc3ncsc3c2)cc1 | 0%

High-throughput results (PubChem)

This is a subset, so the mix of outcomes need not match the whole.
